# Assay outcomes (PubChem)
# A1 inh: inhibitors of the anti-apoptotic protein A1, read as caspase activation; MEF A1-2A-BIM cells, Caspase-Glo 3/7 luminescence, 3 h; percent of clofoctol response, vehicle zero; actives 0.066% (n = 330,000); caspase activation, % (no concentration beside the values);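 active = over half of replicate activation scores above 10%, or exactly half above 10 with the replicate mean above 10; inconclusive = replicate mean below 10 yet half the replicates above 10; inactive = over half of replicates below 10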;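 also: wells of about 30 µL received 50 nL stock; many hits fall short of the cut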
# MLL AF4-AF9 inh: blocks AF4 peptide binding to human AF9; P42568; AlphaScreen, biotin-AF4 peptide binding to FLAG-AF9; inhibition, % at 10 µM; actives 0.47% (n = 350,000);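 active = every replicate reaching a set inhibition limit, whatever the replicate mean, cut at about 25% in these data; inconclusive = mean inhibition reaches that limit but some replicates miss it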;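 also: 0% = plate neutral control median and 100% = total signal loss; the record names both 10 and 1 µM as test concentration; the first replicate is given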
# Target sequence (P42568 whole entry, looked up): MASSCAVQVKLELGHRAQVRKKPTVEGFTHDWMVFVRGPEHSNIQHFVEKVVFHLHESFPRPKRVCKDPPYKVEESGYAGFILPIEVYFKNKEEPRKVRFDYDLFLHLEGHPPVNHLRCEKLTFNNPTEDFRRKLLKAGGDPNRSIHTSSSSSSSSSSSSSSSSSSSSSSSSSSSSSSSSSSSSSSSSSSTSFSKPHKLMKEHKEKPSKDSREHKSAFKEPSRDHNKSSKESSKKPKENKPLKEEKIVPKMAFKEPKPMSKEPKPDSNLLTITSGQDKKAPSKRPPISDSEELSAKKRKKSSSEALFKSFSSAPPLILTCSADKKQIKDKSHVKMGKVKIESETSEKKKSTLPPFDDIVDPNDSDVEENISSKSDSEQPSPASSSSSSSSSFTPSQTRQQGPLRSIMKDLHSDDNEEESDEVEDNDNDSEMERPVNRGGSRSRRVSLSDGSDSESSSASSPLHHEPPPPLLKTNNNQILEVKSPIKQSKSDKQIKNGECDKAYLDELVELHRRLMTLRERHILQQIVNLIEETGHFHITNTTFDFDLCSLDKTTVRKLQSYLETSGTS
# RanGTP-Imp inh: disruptors of Ran-importin-beta complex formation – biochemical, FRET, CFP-Ran, YFP-importin-beta, homogeneous, primary screen; inhibition, % (test concentration not listed); AID 2216; actives 1.1% (n = 300,000); cell-free CFP-Ran/YFP-importin-beta FRET ratio;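 active = most replicates above 15%; inconclusive = exactly half above 15%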;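 also: 0% = DMSO wells and 100% = Ran loaded with GDP instead of GTP; wells of about 40 µL received 100 nL stock; the first replicate is given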
# rRNA inh HTS: inhibitors of bacterial rRNA selective over humanized ribosomes | GFP signal change (wild-type ribosome), % (test concentration not listed) | AID 720706 | actives 1.6% (n = 350,000) | E. coli WT GFP vs humanized-ribosome RFP mutants, fluorescence, 24 h; stronger effect = lower value; DMSO median 0, no signal -100;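 active = significant combined selectivity score with lowered wild-type GFP, culture density cut under 30%, mutant RFP and density less affected; inactive = any of these conditions unmet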; also: one replicate is shown; some compounds called inactive have numbers as strong as hits
# T cruzi inh: T. cruzi replication inhibition | actives 1.4% (n = 300,000) | T. cruzi beta-gal in NIH3T3, luminescence, 90 h | inhibition, % (test concentration not listed);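 active = mean inhibition across valid replicates above about 55%, limit read from the data; inconclusive = mean below that limit but half or more replicates reach it; inactive = mean below it, under half of replicates reach it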;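 also: signal also drops with host cell toxicity which is not excluded here; 0% = plate median of DMSO wells and 100% = zero luminescence signal; higher percent means less beta-gal luminescence so fewer parasites; stock transfer was 50 nL into about 50 µL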
# Calb FLC: C. albicans growth modulation with fluconazole | actives 0.57% (n = 300,000) | AID 1979 | growth inhibition, % (concentration not given with the values) | C. albicans CaCi-2 (fluconazole-resistant clinical isolate) + fluconazole, Alamar Blue growth, 48 h;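 active = most replicates above 75%; inconclusive = exactly half above 75%; inactive = most below 75%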;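 also: all wells also contain fluconazole at 8 µg/ml as a sub-toxic cotreatment; 0% = median of DMSO wells and 100% = median of geldanamycin control wells; wells of about 8 µL received 7.5 nL stock; the first replicate is given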
# Vif A3G: HIV-1 Vif–A3G interaction blockers – biochemical, TR-FRET, GST-Vif 1-94, biotin-A3G peptide, dose response retest, primary screen (AID 1117319); one-dose inhibition, %; IC50 in µM for titrated hits; actives 0.57% (n = 260,000); TR-FRET GST-Vif / biotin-A3G peptide binding; higher % means a stronger effect; test concentration not given here; strong numbers were not always called active;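 active = above the screen mean plus three standard deviations and confirmed in dose response; inconclusive = results disagree or hit not tested in dose response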;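 also: Vif residues 1-94 fused to GST binding biotinylated APOBEC3G peptide 110-148; 0% = full assay without inhibitor and 100% = GST in place of GST-Vif; retest series ran down from 100 µM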
# Beta cell apopt: blocks beta cell apoptosis | INS-1E cytokine-induced death, ATP luminescence, 48 h; percent of positive-control rescue, neutral wells zero | protection from apoptosis, % (concentration not given with the values) | actives 0.8% (n = 300,000) | AID 435005;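 active = all replicates at 75% or more, or half of them and the mean; inconclusive = half reach 75% but not the mean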;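 also: 0% = cytokine-treated negative control wells and 100% = positive control rescue; higher means more ATP so stronger rescue from cytokine killing; wells of about 40 µL received 100 nL stock; the first replicate is given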
# rRNA inh HTS OD600: recorded beside rRNA inh HTS, whose call it bears; OD600 change, %; measured here: OD600 growth;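 optical density of the mix in the first replicate; 0 = DMSO median and -100 = no signal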
# rRNA inh HTS RFP: further read-out of rRNA inh HTS, marked with its call; RFP signal change, %; measured here: RFP humanized mutant strains;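 first replicate; 0 = DMSO median and -100 = no signal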
# The depositor's hits bear a star; ? = inconclusive; nt = no result given; & = joins results of further samples. Some of the compounds tested; count on the stated rates, not on these rows.
canonical_smiles,A1 inh,MLL AF4-AF9 inh,RanGTP-Imp inh,rRNA inh HTS,rRNA inh HTS OD600,rRNA inh HTS RFP,T cruzi inh,Calb FLC,Vif A3G,Beta cell apopt
C/C(=N\NS(=O)(=O)c1ccc(Cl)cc1)c1ccc(NC(=O)c2ccco2)cc1,0.6,26*,7.2,1,1,2.5,-1,7,nt,-21
Cc1ccccc1-c1noc(C23CC4CC(CC(C4)C2)C3)n1,-0.2,nt,-0.2,nt,nt,nt,9,-4,-3%,nt
Cc1noc(C)c1Cc1ccc(O)cc1,-0.2,nt,2.8,nt,nt,nt,-7,-5,-11%,0
CN(Cc1ccccc1)C(=O)CSc1nc2cc(C(=O)N3CCC(C(N)=O)CC3)ccc2c(=O)n1-c1ccccc1,0.6,nt,1.6,nt,nt,nt,19,-1,25%,-5
CC(NC(=O)CCNS(=O)(=O)c1cccc2nsnc12)c1ccccc1 (stereo unspecified),0.0,-2.3,-0.7,5,4,-3.1,18,-3,nt,2
O=C(CN1CCN(c2ccccc2)CC1)Nc1ccc2c(c1)OCCO2,0.9,-7.0,4.4,-3,-6,-1.5,-13,6,32%,-5
COC(=O)C1CC(O)CN1C(=O)c1ccco1 (stereo unspecified),0.7,nt,0.0,nt,nt,nt,0,4,0%,5
CCCC(C)NC(=O)c1c2c(nc3ccccc13)CCC2 (stereo unspecified),0.2,-1.3,-4.8,10,1,2.1,8,40,nt,-3
O=C(O)c1ccccc1Nc1cc(Cl)c2nonc2c1[N+](=O)[O-],1.9,1.1,-5.2,-20*,14*,5.1*,9,26,nt,1
CC1(C)CC(=O)C(C(c2ccncc2)C2C(=O)CC(C)(C)CC2=O)C(=O)C1,0.5,nt,0.9,nt,nt,nt,-6,13,5%,-9

# Nine consecutive records out of the list so far, for reference:
canonical_smiles,A1 inh,MLL AF4-AF9 inh,RanGTP-Imp inh,rRNA inh HTS,rRNA inh HTS OD600,rRNA inh HTS RFP,T cruzi inh,Calb FLC,Vif A3G,Beta cell apopt
C/C(=N\NS(=O)(=O)c1ccc(Cl)cc1)c1ccc(NC(=O)c2ccco2)cc1,0.6,26*,7.2,1,1,2.5,-1,7,nt,-21
Cc1ccccc1-c1noc(C23CC4CC(CC(C4)C2)C3)n1,-0.2,nt,-0.2,nt,nt,nt,9,-4,-3%,nt
Cc1noc(C)c1Cc1ccc(O)cc1,-0.2,nt,2.8,nt,nt,nt,-7,-5,-11%,0
CN(Cc1ccccc1)C(=O)CSc1nc2cc(C(=O)N3CCC(C(N)=O)CC3)ccc2c(=O)n1-c1ccccc1,0.6,nt,1.6,nt,nt,nt,19,-1,25%,-5
CC(NC(=O)CCNS(=O)(=O)c1cccc2nsnc12)c1ccccc1 (stereo unspecified),0.0,-2.3,-0.7,5,4,-3.1,18,-3,nt,2
O=C(CN1CCN(c2ccccc2)CC1)Nc1ccc2c(c1)OCCO2,0.9,-7.0,4.4,-3,-6,-1.5,-13,6,32%,-5
COC(=O)C1CC(O)CN1C(=O)c1ccco1 (stereo unspecified),0.7,nt,0.0,nt,nt,nt,0,4,0%,5
CCCC(C)NC(=O)c1c2c(nc3ccccc13)CCC2 (stereo unspecified),0.2,-1.3,-4.8,10,1,2.1,8,40,nt,-3
O=C(O)c1ccccc1Nc1cc(Cl)c2nonc2c1[N+](=O)[O-],1.9,1.1,-5.2,-20*,14*,5.1*,9,26,nt,1

# Next records.
canonical_smiles,A1 inh,MLL AF4-AF9 inh,RanGTP-Imp inh,rRNA inh HTS,rRNA inh HTS OD600,rRNA inh HTS RFP,T cruzi inh,Calb FLC,Vif A3G,Beta cell apopt
COc1ccc(OC)c2c1sc(=NC(=O)C(C)C)n2C,1.5,12,2.5,4,8,-6.9,-4,26,-39%,-3
Cc1cc(-c2ccc(S(=O)(=O)N3CCN(c4ccccc4F)CC3)s2)on1,-1.0,-1.4,3.4,6,13,0.0,5,5,nt,11
CN(c1ccccc1)S(=O)(=O)c1ccc(Cl)c(C(=O)OCC(=O)N2CCOCC2)c1,-0.1,0.4,-0.6,-6,-16,-0.1,-8,25,nt,-3
CO/N=C/CC(=O)c1cnc(-c2ccc(Cl)cc2)s1,-0.6,1.2,2.8,3,2,3.6,-15,1,5%,1
O=c1[nH]c2ccc(S(=O)(=O)N3CCCCC3)cc2[nH]c1=O,0.0,nt,5.4,nt,nt,nt,0,0,-1%,4
O=C(O)COc1ccc(S(=O)(=O)NCCc2ccccc2)cc1,0.0,-2.1,-0.6,2,7,1.5,-2,-1,-3%,-4
O=C(Oc1ccccc1)N1CCN(C(=O)c2ccco2)CC1,1.1,1.9,?,1,5,0.3,-9,5,13%,-2
COc1ccc(CCn2nnnc2C(CC(C)C)N2CCN(c3ncccn3)CC2)cc1OC (stereo unspecified),0.6,nt,-4.8,nt,nt,nt,-7,4,12%,1
O=C(/C=C/c1cccc([N+](=O)[O-])c1)Nc1cc(C(=O)O)cc(C(=O)O)c1,0.8,-1.6,8.2,19,15,-1.5,-5,-1,-4%,-5
COc1cc(C(=O)OCC(=O)N2CCC(Cc3ccccc3)CC2)cc(OC)c1OC,-0.2,0.0,nt,1,2,-1.0,5,-8,-12%,-12
CC(=O)c1c(C)[nH]c(C2=NNC(=NCc3ccccc3)SC2)c1C,-0.6,4.1,0.3,-22,-25,-1.8,-4,15,10%,4
O=C(CCC(=O)N1CCOc2ccc(Cl)cc21)NCc1ccccc1,nt,-10,1.9,5,2,1.6,-1,16,nt,-1
O=C1C=C(OCc2ccccc2)CN1,0.9,nt,-0.7,nt,nt,nt,5,-2,6%,-5
CC(=O)N1CCc2c(sc3c2c(=O)n(-c2ccccc2)c(=O)n3Cc2ccccc2Cl)C1,1.2,0.3,-7.1,13,-3,1.5,15,-5,?,8
CCN(CC(=O)Nc1ccc(NC(C)=O)cc1)C(=O)c1n[nH]c(=O)c2ccccc12,0.2,-3.0,0.2,18,16,0.9,-3,-9,nt,2
CC(=O)Nc1ccc(NC(=O)C(C)N2CCN(S(=O)(=O)c3ccc(C)cc3)CC2)cc1 (stereo unspecified),-0.3,-0.4,-0.5,0,0,3.6,0,-5,-8%,0
Cc1c(NC(=O)c2cc(-c3ccc(Br)cc3)on2)c(=O)n(-c2ccccc2)n1C,0.2,2.1,-2.6,2,5,1.4,-17,23,nt,2
Cc1ccc(NC(=S)NC(=O)c2sc3ccccc3c2Cl)c(C(=O)O)c1,nt,nt,5.4,nt,nt,nt,-14,36,-33%,nt
CN(Cc1ccccc1)S(=O)(=O)c1ccc(NC(=S)NC(=O)C2CCCCC2)cc1,-0.8,-6.0,0.6,-2,12,4.9,36,23,23%,3
Cc1ccc(OCC(=O)NNC(=O)c2ccoc2C)c(Br)c1,-0.4,nt,3.6,nt,nt,nt,-4,-4,?,1
C/C(=N/NC(=O)Nc1ccccc1)c1ccc(C)cc1,0.2,7.8,1.4,15,6,-0.7,10,-8,-1%,nt
COc1ccc(N2CC(NS(=O)(=O)c3ccc4ccccc4c3)CC2=O)cc1OC (stereo unspecified),0.6,-5.4,5.1,-11,-13,2.3,2,0,0%,3
O=C(O)C1=C[C@H](c2ccc3c(c2)OCO3)C[C@H](OCc2ccc(CO)cc2)O1,-0.2,-2.2&-4.5,-2.4,nt,nt,nt,-17,-3,nt,1
CCC(=O)N1CCN(c2ccccc2NC(=O)Cc2ccccc2)CC1,1.6,nt,-1.8,nt,nt,nt,9,3,5%,-4
Cc1ccc(C2=NNC(c3cccc(F)c3)S2)cc1 (stereo unspecified),-8.1,0.1,-3.2,nt,nt,nt,nt,-18,-4%,1
Cc1cccc(-c2nc(CS(=O)CC(=O)NC(C)CCc3ccccc3)c(C)o2)c1 (stereo unspecified),-0.3,-2.1,7.5,1,-4,4.8,3,5,nt,3
CCOC(=O)C1=NN(C(=O)c2cccc(Br)c2)C(O)(C(C)(C)C)C1 (stereo unspecified),0.0,nt,1.0,nt,nt,nt,17,-13,4%,nt
S=c1[nH]nc(Nc2ccccc2Cl)s1,-1.4,-4.6,-3.9,-17,-20,-1.2,-6,3,-6%,-4
CC(=O)Nc1ccccc1OCC(=O)NC1CCCCC1C (stereo unspecified),-0.3,-1.4,nt,0,0,-0.7,nt,nt,-13%,-12
CSc1ccc(CSCC(=O)N2CCN(S(=O)(=O)c3ccc(C)cc3C)CC2)cc1,0.3,0.1,nt,nt,nt,nt,nt,nt,-2%,8
CC(Nc1cc(=O)n(C)c(=O)n1C)c1ccccc1 (stereo unspecified),0.9,nt,2.9,nt,nt,nt,8,39,13%,-9
N#C/C(=C\c1ccc(O)c([N+](=O)[O-])c1)C(=O)NCc1ccccc1,-0.8,-12,2.6,0,-6,0.5,4,1,nt,-5
O=C(CCSCc1ccccc1Cl)N1CCN(c2ccccn2)CC1,0.0,nt,1.3,nt,nt,nt,9,-1,-1%,-4
CC(=O)NC12CC3CC(C1)CC(C(=O)N(C)Cc1cccc(Cl)c1Cl)(C3)C2,1.9,-3.3,1.1,-9,-18,-7.1,5,4,-1%,1
N#Cc1ccccc1S(=O)(=O)N1CCN(C(=O)CN2C(=O)NC3(CCCC3)C2=O)CC1,0.0,0.8,?,7,6,-1.0,-6,-6,-1%,0
O=C(c1cccc([N+](=O)[O-])c1)N1CCN(c2ccc(N3CCOCC3)nn2)CC1,-0.8,-7.6,0.7,5,15,-0.6,1,1,-1%,nt
CN1C(=O)NC(NC(=O)c2cccs2)(C(F)(F)F)C1=O (stereo unspecified),0.1,nt,1.8,nt,nt,nt,-13,13,4%,0
O=C1c2ccccc2C(=O)N1CCCOCc1c[nH]c(=O)[nH]c1=O,-0.1,nt,-0.2,nt,nt,nt,-7,-3,23%,-1
Cn1c(=Nc2ccccc2)sc2ccccc21,-0.4,4.2,-1.7,-13,2,0.6,7,-11,14%,-5
O=C1OCCC1Sc1nc2ccccc2n1Cc1ccccc1 (stereo unspecified),0.3,nt,-0.5,nt,nt,nt,-11,-6,69%,0
O=C(Nc1ccc2c(c1)OCCO2)C1CCN(S(=O)(=O)Cc2ccccc2)CC1,2.1,nt,0.0,nt,nt,nt,-11,3,3%,9
Cn1c(CNC(=O)c2ccc(Cl)c(Cl)c2)nnc1SCC(=O)Nc1sc2c(c1C#N)CCCC2,0.9,nt,-2.3,nt,nt,nt,8,-4,-1%,2
